2A StopGo = FMDV 2A StopGo reporter, luciferase signal. Potency, µM (top dose mostly 57.9 µM), for inactives: at the top dose signal change, negative = less light. human cells with a luciferase reporter of 2A StopGo recoding; control for the full effect not named in the record. hit rate 1.2% among 410,000. AID 1159524; active = well fitted falling curve with a large enough effect; inconclusive = small, poorly fitted or top-dose-only effect; inactive = no such curve, though single readings can be large or run the other way; tested in HEK293T cells; also: % is scaled to controls: 0 for no effect and ±100 for the full control effect; nearly all actives have a fitted effect of over 45% in size; luciferase light after 4 h
Cruzain inh Det = blocks cruzain activity in presence of Triton detergent | purified cruzain, Z-FR-AMC fluorescence, 0.01% Triton | hit rate 0.43% among 200,000 | Potency, µM, for the others: max response, negative = inhibition, actives largely listed as inhibitors; active = well fitted curve in the direction sought with a large enough effect; inconclusive = small, poorly fitted or top-dose-only effect, or another doubt; inactive = no such curve, though single readings can be large; an effect the other way counts as inactive or inconclusive;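 also: plate controls were neutral wells for no effect and buffer without enzyme for full effect; nearly all actives have a fitted effect of over 40% in size; top concentration of the series not given in the record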
Target sequence (P25779 123-467 limits assumed): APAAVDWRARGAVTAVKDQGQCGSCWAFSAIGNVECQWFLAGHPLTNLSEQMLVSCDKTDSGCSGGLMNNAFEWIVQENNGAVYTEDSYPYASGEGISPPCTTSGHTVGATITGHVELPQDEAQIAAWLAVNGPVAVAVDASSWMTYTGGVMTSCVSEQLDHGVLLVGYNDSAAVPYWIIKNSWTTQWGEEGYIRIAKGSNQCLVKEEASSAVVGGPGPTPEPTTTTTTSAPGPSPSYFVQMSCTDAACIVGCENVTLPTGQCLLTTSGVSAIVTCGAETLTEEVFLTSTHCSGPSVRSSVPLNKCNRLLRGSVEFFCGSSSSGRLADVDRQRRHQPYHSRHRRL
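Enzyme 1.5 nM, Z-FR-AMC 2 uM, NaOAc 100 mM pH 5.5, DTT 5 mM, Triton X-100 0.01%; 15 min RT compound preincubation; kinetic ex360/em450, 60 s delta.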
Cruzain inh noDet = blocks cruzain activity in detergent-free assay; hit rate 2.3% among 200,000; AID 1476; purified cruzain, Z-FR-AMC fluorescence, no detergent; Potency, µM, inactives show max response, negative = inhibition, actives largely listed as inhibitors; active = well fitted curve in the direction sought with a large enough effect; inconclusive = small, poorly fitted or top-dose-only effect, or another doubt; inactive = no such curve, though single readings can be large; an effect the other way counts as inactive or inconclusive;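 also: plate controls were enzyme without inhibitor for no effect and buffer without enzyme for full effect; nearly all actives have a fitted effect of over 40% in size; top concentration of the series not given in the record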
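Purified cruzain at 1.5 nM, pre-incubated 15 min with compound at room temperature in 100 mM sodium acetate pH 5.5, 5 mM DTT, 0.00005% Triton X-100. Reaction started with 2 uM Z-FR-AMC; AMC fluorescence increase over 60 s gives rate.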
SARS PLpro yeast = blocks SARS-CoV papain-like protease in a yeast assay; S. cerevisiae expressing SARS-CoV PLpro, growth rescue; control for the full effect not named in the record; Potency, µM (series often up to 32.9 µM), for inactives: at the highest dose activity, positive = growth rescue; hit rate 0.19% among 330,000; AID 485353; also: 0% is about no effect; nearly all actives have a fitted effect of over 55% in size; growth read by luminescence after 48 h
Marburg entry inh = inhibitors of Marburg virus binding or cell entry; hit rate 1.8% among 300,000; Potency, µM (top dose mostly 37.8 µM), without a hit: at the highest dose activity change, negative = inhibition, hits mostly inhibitors; Marburg virus pseudotyped entry inhibition, cell reporter; control for the full effect not named in the record; about a third of the inactives were read at about 46 µM; active = well fitted inhibition curve with a large enough effect; inconclusive = small, poorly fitted or top-dose-only effect, or effect the other way; inactive = flat fitted curve, though single readings scatter; tested in HEK293 cells; about a fifth of its hits are not listed in these tables; also: % is scaled to controls: 0 for no effect and ±100 for the full control effect; luciferase read-out
RE007 growth inh = less growth of the S. pombe RE007 Vpr strain; S. pombe RE007 Vpr strain, BacTiter-Glo ATP luminescence, 24 h; control for the full effect not named in the record; AID 651644; Potency, µM (titrated, usually from 92.2 µM), inactives show top-dose activity change, negative = less growth; hit rate 0.21% among 360,000; active = well fitted falling curve with a large enough effect; inconclusive = small, poorly fitted or top-dose-only effect; inactive = no such curve, though single readings can be large or run the other way;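 also: % is scaled to controls: 0 for no effect and ±100 for the full control effect; nearly all actives have a fitted effect of over 50% in size; the assay follows cell death caused by Vpr and the record does not say whether a fall means rescue or toxicity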
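Fission yeast RE007 carrying one integrated HIV-1 vpr copy, seeded at OD 0.01 in PMG+AL medium with 23 nL pinned compound. Grown 24 h at 30 degrees; viability read by BacTiter-Glo luminescence after 5 min.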
NS1 inh = inhibitors of influenza NS1 protein function; S. cerevisiae slowed by influenza A NS1, growth recovery by OD600; Potency, µM (series often up to 46.1 µM), for the others: top-dose activity, positive = more growth; hit rate 0.4% among 270,000; also: actives are rising curves; nearly all actives have a fitted effect of over 50% in size
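Growth recovery, yeast-based: influenza A NS1 expressed in S. cerevisiae causes slow growth, and suppressors are detected by OD600. The parent strain without NS1 is used as positive control.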
LASV entry inh = inhibitors of Lassa virus binding or cell entry; AID 540256; hit rate 1.2% among 300,000; Potency, µM (titrated, usually from 37.9 µM), inactives show at the highest dose activity change, negative = inhibition, usual class: inhibitors; Lassa virus pseudotype entry inhibition, cell reporter; control for the full effect not named in the record; active means well fitted inhibition curve with a large enough effect; inconclusive means small, poorly fitted or top-dose-only effect, or effect the other way; inactive means flat fitted curve, though single readings scatter; tested in HEK293 cells; also: % is scaled to controls: 0 for no effect and ±100 for the full control effect; nearly all actives have a fitted effect of over 50% in size; luciferase read-out
* hit, by the source's call; ? = inconclusive; . = not tested or not shown; [ ] = dose if it differs, or a comment. Unless noted, calls follow the shape of the dose curve; as a rule, active means well fitted rising curve with a large enough effect; inconclusive means small, poorly fitted or top-dose-only effect; inactive means no such curve, though single readings can be large or run the other way. Potency is read from the fitted curve at half-maximal effect.

nr	canonical_smiles	2A StopGo	Cruzain inh Det	Cruzain inh noDet	SARS PLpro yeast	Marburg entry inh	RE007 growth inh	NS1 inh	LASV entry inh
1	CCOc1ccc2nc(SCC(=O)c3ccc(O)cc3O)sc2c1	25%	.	.	1%	.	1%	9%	.
2	CCN(Cc1ccccc1)c1ccc(/C=N/NS(=O)(=O)c2cccc([N+](=O)[O-])c2)cc1	33%[activator]	-7.0%	25µM*	6%	2%	4%	0%	?
3	CCOc1ccc(NC(=O)N2CCN(c3nc4ccccc4s3)CC2)cc1	?	4.0%	?	-8%	-17%	-1%	-7%	-13%
4	CCN(C(=O)C(C)Cl)c1ccccc1 (stereo not given)	-5%	.	.	-2%	?	8%	.	28%
5	Cc1ccc(OCCCC(=O)Nc2nncs2)cc1	-1%	-2.9%	-3%	5%	19%	21%	-8%	21%
6	COc1ccc(Cl)cc1/C=N/NC(=O)c1c(-c2ccccc2)noc1C	?	.	.	1%	.	7%	-18%	.
7	COc1ccc2[nH]cc(C(=O)CN3CCCCC3C)c2c1 (stereo not given)	.	-1.8%	9%	9%	0%	.	?	.
8	CC(CCc1ccccc1)NC(=O)Cc1ccc(Br)cc1 (stereo not given)	-6%	.	.	2%	?	14%	-32%	?
9	Cc1cc(Nc2ccccc2Cl)nc(-c2ccccc2O)n1	-25%	.	.	-6%	?	4%	-10%	-18%[46.1 µM]
10	COc1cc(/C=C/c2ccc3cccc(O)c3n2)cc(OC)c1OC	1%	.	.	1%	?	3%	0%	?
11	C=CCNC(=O)c1cc(-c2ccc3c(c2)OCO3)on1	-38%	.	.	0%	?	0%	2%	?
12	O=C(COC(=O)c1cc([N+](=O)[O-])ccc1N1CCOCC1)NCCc1ccccc1	-29%	.	.	2%	?	2%	-15%	6%

(further entries)
nr	canonical_smiles	2A StopGo	Cruzain inh Det	Cruzain inh noDet	SARS PLpro yeast	Marburg entry inh	RE007 growth inh	NS1 inh	LASV entry inh
13	Cc1ccc(C)c(NC(=O)COC(=O)COc2cccc3c2OC(C)(C)C3)c1	-13%	.	.	.	28%	46%	.	3%
14	CCn1c(=O)c(C(=O)CN2CCN(S(=O)(=O)c3ccccc3)CC2)c(N)n(Cc2ccccc2)c1=O	?	.	.	1%	19%	-7%	.	-3%
15	Cc1cc(C(=O)Cn2nc(C(=O)O)c3ccccc3c2=O)c(C)n1CCc1ccc(F)cc1	-24%	.	.	1%	5.6µM*	-10%	-3%	?
16	O=C(CSc1nncn1-c1ccccc1)Nc1cc(F)ccc1F	1%	.	.	-4%	8%[46.1 µM]	-8%	0%	9%[46.1 µM]
17	COc1ccc(OCCSc2nc3ccccc3n2CCC(=O)O)cc1	-13%	.	.	8%	-21%[46.1 µM]	5%	6%	9%[46.1 µM]
18	COc1ccc(NS(=O)(=O)c2ccc3c(c2)CCCN3C(C)=O)cc1	18%	.	.	3%	-3%[46.1 µM]	60%	8%	?
19	CC(C)(C)c1ccc(COc2ccsc2C(=O)O)cc1	39%[activator]	.	.	0%	1%[46.1 µM]	70%	.	19%
20	O=C(COc1ccc(Cl)cc1)N(Cc1cccs1)C1CCS(=O)(=O)C1 (stereo not given)	0%	.	.	-4%	.	0%	-14%	.
21	Cc1cc2cc(CNC(=S)Nc3ccc(OC(F)(F)F)cc3)ccc2n1C	6%	3.3%	?	3%	4%	6%	12%	?
22	O=C(C[n+]1ccccc1)N/N=C/c1cc(Br)ccc1O	-6%	.	.	-2%	12%	-10%	-8%	9%
23	Cc1nnsc1C(=O)N1CCCC(C(=O)c2ccc(C(F)(F)F)cc2)C1 (stereo not given)	-4%	.	.	0%	.	-1%	8%	.
24	COc1ccc(Oc2c(C(F)(F)F)oc3c(CN4CCCC(C)C4)c(O)ccc3c2=O)cc1 (stereo not given)	0%	-8.1%	15%	.	-4%[46.1 µM]	.	.	14%[46.1 µM]

Continued:
nr	canonical_smiles	2A StopGo	Cruzain inh Det	Cruzain inh noDet	SARS PLpro yeast	Marburg entry inh	RE007 growth inh	NS1 inh	LASV entry inh
25	C=CCn1c(C)c(C=C2C(=O)NC(=O)NC2=O)c2ccccc21	-25%	.	.	-1%	.	-10%	10%	.
26	COC(=O)c1sccc1NC(=O)Nc1cccc(C)c1	37%[activator]	.	.	-5%	.	?	-7%	.
27	Cc1nnc(SC(C)C(=O)NC2CCCCC2C)n1N (stereo not given)	0%	.	.	-1%	6%[46.1 µM]	-3%	.	-8%
28	CCCN(CCC)C1Sc2ccc(C(=O)OC)cc2NC1=O (stereo not given)	-8%	1.6%	2%	15%	-10%	-5%	2%	-16%[14.3 µM]
29	COc1ccc(-c2c(C)oc3cc(O)cc(O)c3c2=O)cc1OC	1%	-4.9%	-8%	?	-3%	0%	-35%	.
30	COc1ccc(CNC(=O)COC(=O)c2cc(-c3ccco3)nc3ccccc23)cc1	.	-9.2%	5%	9%	.	.	5%	.
31	Oc1ccccc1-c1cc(-c2cccc(F)c2)n[nH]1	18%	-7.5%	-8%	-10%	0%	?	-160%	?
32	COC(=O)CSc1nnc(-c2c[nH]c3ccccc23)o1	23%	.	.	-11%	.	-13%	-12%	.
33	CCOc1cc(C2NC(=O)CCC2[N+](=O)[O-])cc(Br)c1OC (stereo not given)	-1%	.	.	1%	.	5%	4%	.
34	Cc1ccc(Cn2c(-c3ccccc3)nc3ccccc32)cc1	-10%	-10%	7%	.	13%[46.1 µM]	.	.	-2%[46.1 µM]
35	CCCOc1ccc(-c2nnc(-c3cccs3)o2)cc1	0%	?	5%	5%	-1%[46.1 µM]	4%	-5%	2µM*
36	Cc1cccc2c(CC(=O)Nc3ccccc3)noc12	-6%	-0.9%	-5%	9%	2%	4%	11%	?

The listing continues.
nr	canonical_smiles	2A StopGo	Cruzain inh Det	Cruzain inh noDet	SARS PLpro yeast	Marburg entry inh	RE007 growth inh	NS1 inh	LASV entry inh
37	O=C(NCCCN1CCCC1=O)c1cc(=O)c2ccccc2o1	-9%	-2.7%	-9%	3%	4%	2%	-50%	-5%
38	C=CCn1c(SCC(=O)N2CCc3ccccc3C2)nc2ccccc2c1=O	?	-4.4%	3%	5%	-29%	29%	-52%	?
39	Fc1ccccc1CSc1ncnc2c1oc1ccccc12	26%	-0.6%	-6%	-5%	?	13%	-8%	?
40	CC(=O)c1c(COC(=O)c2cccc(C)c2)nc2ccccc2[n+]1[O-]	-10%	.	.	-1%	.	10%	-6%	.
41	COc1cc(/C=N/NC(=O)CCC(=O)Nc2ccc(C)cc2)ccc1O	7%	.	.	0%	-25%[46.1 µM]	11%	.	-16%
42	Cc1[nH]c2ccccc2c1C(=O)C(C)OC(=O)c1ccc(NC(=O)CC#N)cc1 (stereo not given)	-14%	.	.	-1%	7%	5%	.	?
43	Cc1nn(CC(C)C)c(Cl)c1C(=O)N(c1ccc(Cl)cc1F)S(C)(=O)=O	-13%	.	.	-24%	?	-6%	-2%	?
44	Cc1cc2c(N)cccc2nn1	-9%	-5.7%	-12%	6%	7%	-11%	?	.
45	COc1ccc(C(=O)N2CCc3cc(OC)c(OC)cc3C2)cc1OC	-8%	6.9%	-6%	7%	?	-7%	4%	-28%
46	COc1ccc(CC(=O)Nc2ccc(S(=O)(=O)Nc3nccc(C)n3)cc2)cc1	.	2.0%	1%	3%	10%	2%	11%	-1%
47	C/C(=C\C(=O)c1ccc(C)cc1)Nc1cccc(O)c1	-8%	-11%	-12%	9%	-16%	-25%	-38%	-26%
48	O=C1CN(C(=O)/C=C/c2ccccc2)CCN1	-12%	.	.	1%	1%[46.1 µM]	-3%	-4%	2%[46.1 µM]

Carrying on.
nr	canonical_smiles	2A StopGo	Cruzain inh Det	Cruzain inh noDet	SARS PLpro yeast	Marburg entry inh	RE007 growth inh	NS1 inh	LASV entry inh
49	NS(=O)(=O)c1ccc(CNC(=O)c2ccc(NS(=O)(=O)c3ccc4[nH]c(=O)[nH]c4c3)cc2)cc1	-8%	.	.	0%	-11%[46.1 µM]	16%	.	14%
50	O=C(Cn1c(=O)c2ccccc2n(CC(=O)Nc2ccccc2F)c1=O)NCCc1ccccc1	-8%	0.9%	-16%	.	7%[46.1 µM]	.	.	22%[46.1 µM]
51	CCOC(=O)CN(C(=O)COc1nc(-c2ccccc2)cc(C)c1C#N)c1ccccc1C	-20%	.	.	-2%	.	4%	-6%	.
52	CCCCCc1nc2ccccc2c(=O)n1N	-13%	4.4%	8%	-7%	9%	26%	0%	7%
53	CC1(C)Cc2c(sc3ncn4nc(CCC(=O)O)c(=O)nc4c23)CO1	22%	-0.7%	-11%	3%	29%	-11%	5%	2%
54	COc1cccc(/C=N/NC(=O)CCCC(=O)Nc2ccc(Br)cc2)c1	-10%	-7.3%	1%	8%	-24%	-6%	-1%	-17%
55	COC(=O)c1c(N)c(C#N)c2n1CCCCC2	-14%	7.9%	-10%	8%	12%	9%	-60%	8%
56	CCOc1ccccc1C(=O)Nc1nn[nH]n1	-6%	.	.	-1%	10%[46.1 µM]	11%	0%	?
57	COc1ccccc1C(=O)Nc1ccc(S(=O)(=O)N2CCCCC2)cc1	-13%	.	.	-2%	-30%[46.1 µM]	-1%	-4%	2%
58	CCCS(=O)(=O)N1CCCC(C(=O)N2CCN(c3ccccn3)CC2)C1 (stereo not given)	-8%	3.3%	-4%	-2%	4%	2%	-3%	-13%
59	CC(C)(C)c1cc(C(C)(C)C)c2oc(=O)c(-c3nc4ccccc4[nH]3)cc2c1	0%	0.0%	-4%	.	.	.	.	?
60	CCc1cc(-c2n[nH]c(C)c2Oc2ccc(C(C)C)cc2)c(O)cc1O	-7%	-17%	4%	-9%	?	29%	15%	-32%
61	COc1ccc(-c2cc(C(=O)Nc3cccc(C(C)=O)c3)no2)cc1	43%[activator]	0.4%	20µM*	5%	16%	8%	-3%	?
62	O=C(COC(=O)CCc1nc2ccccc2n1-c1ccccc1)Nc1ccc(N2CCCCC2)cc1	-13%	-6.0%	7%	-5%	-11%	-5%	9%	0%
63	Cc1c(-c2ccccc2)nc2ccccc2c1C(=O)Nc1ccncc1	0%	.	.	-1%	?	-2%	-30%	0%[46.1 µM]

Screens deposited in PubChem BioAssay by National Center for Advancing Translational Sciences (NCATS).
